# H5N1 CPE: antiviral screen in MDCK cells, H5N1 avian flu; cytopathic effect, luminescence, 72 h; hits give high values; no value below 0 was filed and about half of the inactive calls have no number; reference of the scale not given here; inhibition, % at 50 µM; actives 0.07% (n = 96,000); in the data active = inhibition above about 25%
# Active calls of the source: *; i = inactive.
nr	mol	H5N1 CPE
1	COCCCNC(=O)CSC1=Nc2ccccc2C2=NC(CC(=O)NCc3ccccc3)C(=O)N12 (stereo unspecified)	1.0
2	COc1ccc(CCNC(=O)CC2COc3ccccc3O2)cc1OC (stereo unspecified)	i
3	CCN(CC)C(=O)c1sc2nc(-c3ccc(OC)cc3)cn2c1C	1.2
4	COCCNC(=O)Cn1nc(C)c2ccccc2c1=O	0.6
5	COc1ccc(S(=O)(=O)NCc2ccccn2)c(Cl)c1Cl	1.8
6	COc1ccc(S(=O)(=O)N(CC(=O)NCc2ccco2)c2ccccc2)cc1	i
7	COc1ccc(C(=O)Nn2c(SCC(=O)N3CCC(C)CC3)nc3ccccc3c2=O)cc1	0.1
8	Cc1ccc(S(=O)(=O)Nc2cc(Cl)c(O)cc2C)cc1	i
9	O=c1oc(-c2cccs2)nc2sc3c(c12)CCC3	i
10	CC(Oc1ccccc1)C(=O)NC1CC(C)(C)NC(C)(C)C1 (stereo unspecified)	i
11	Cc1ccc(S(=O)(=O)N2C(=O)CCC2C(=O)Nn2cnnc2)cc1 (stereo unspecified)	0.2
12	CC1(C)CC(=O)C=C(NCc2cccnc2)C1	i
13	Cc1nnsc1S(=O)(=O)Cc1ccccc1Cl	0.8
14	Cc1ccc(C)c2sc(NC(=O)c3ccc(N4CCCCC4)c([N+](=O)[O-])c3)nc12	i
15	CCn1c(C(C#N)/C(=N\S(=O)(=O)c2cccs2)c2ccccc2)nc2ccccc21 (stereo unspecified)	i
16	COCCn1c(SCC(=O)NC(=O)NC(C)(C)C)nc2ccccc21	i
17	CN1CC=C2C(C#N)=C(N)C(C#N)(C#N)C(CCc3ccccc3)C2C1 (stereo unspecified)	0.1
18	O=C(Nc1nc2c(s1)CCCC2)c1cccs1	i
19	O=C(c1cc(-c2ccccn2)nc2c(Cl)cccc12)N1CCN(C(=O)C2CCCO2)CC1 (stereo unspecified)	i
20	Cc1nc(SCC(N)=O)[nH]c(=O)c1CCC(C)C	i

# 3 compounds out of the list, arranged by molar mass, falling.
nr	mol	H5N1 CPE
6	COc1ccc(S(=O)(=O)N(CC(=O)NCc2ccco2)c2ccccc2)cc1	i
16	COCCn1c(SCC(=O)NC(=O)NC(C)(C)C)nc2ccccc21	i
4	COCCNC(=O)Cn1nc(C)c2ccccc2c1=O	0.6

# Remaining list, next part
nr	mol	H5N1 CPE
21	O=C(CCNc1ccc(F)cc1)c1ccco1	10
22	CCc1nc(SCC(=O)Nc2c(C)n(C)n(-c3ccccc3)c2=O)n[nH]1	i
23	O=C(COc1ccc(S(=O)(=O)N2CCOCC2)cc1)Nc1ccccc1C(F)(F)F	0.3
24	Cc1cc(=O)n2[nH]c(-c3cccnc3)nc2n1	i
25	CC(=O)c1nnn(-c2nc(N)nc(N(c3ccccc3)c3ccccc3)n2)c1C	i
26	Cc1ccc(C(c2sc3nc(C)nn3c2O)N2CC(C)OC(C)C2)cc1 (stereo unspecified)	0.2
27	O=C(NCC1CCCO1)c1ccc2c(=O)n(CCc3ccccc3)c(=O)[nH]c2c1 (stereo unspecified)	0.1
28	O=S1(=O)CCC(NS(=O)(=O)c2cccc3cccnc23)C1 (stereo unspecified)	i
29	N=c1c(S(=O)(=O)c2ccccc2)cc2c(=O)n3ccccc3nc2n1CC1CCCO1 (stereo unspecified)	3.8
30	O=C(NCc1ccco1)c1ccc(C(=O)NCc2ccco2)s1	4.9
31	O=C(Oc1ccc2c3c(c(=O)oc2c1)CCC3)c1ccco1	i
32	Cc1cc(C(F)F)n2ncc(C(=O)O)c2n1	0.0
33	Nc1nnc(Cc2ccc(Cl)cc2)s1	i
34	Cc1snc(S(=O)(=O)/C(C#N)=N/Nc2cccc(C(F)(F)F)c2)c1C#N	i
35	COc1cc(NC(=O)Cc2ccccc2)ccc1NC(=O)c1ccco1	i
36	CC1C(=O)Nc2ccccc2N1C(=O)C1CC1 (stereo unspecified)	0.2
37	Cc1cccc(-c2noc(CCCC(=O)Nc3ccc(C(N)=O)cc3)n2)c1	0.4
38	COc1cccc(-n2c(C)c(C(C)=O)c(C(C)=O)c2C)c1	0.3
39	CCOC(=O)CNc1nc(-c2ccncc2)nc2ccccc12	1.1
40	O=C(/C=C/N1CCOCC1)c1cc2ccccc2o1	i
41	c1cncc(Oc2cccc(Oc3cccnc3)c2)c1	0.5
42	CCOC(=O)c1c(C)[nH]c(C(=O)OCc2c(C)noc2C)c1C	i
43	CCOC(=O)c1ccc(CC(=O)c2ccc(O)cc2O)o1	i
44	O=C(NNC(=O)c1cc(-c2ccccc2)nc2ccccc12)Nc1cccc(Cl)c1	0.4
45	CN(CCNC(=O)c1cc2c(=O)n(C)c3ccccc3c2n1C)Cc1ccccc1	i
46	CCCn1c(SCC(=O)Nc2nnc(CC)s2)nnc1-c1ccco1	i
47	COc1ccc(Cn2nnnc2CN2CCC(c3nc4ccccc4s3)CC2)cc1	0.5
48	CCOC(=O)NCC(C)(C)CNC(=O)OCC	0.8
49	COc1ccc(C2C(C#N)=C(N)OC(C(C)(C)C)=C2C#N)cc1OC (stereo unspecified)	i
50	COC(=O)c1nn(-c2ccc(OC)cc2)c(=O)cc1Oc1cccc(Cl)c1	i
51	CCn1ncc(Br)c1C(=O)Nc1sc2c(c1C(N)=O)CCC2	i
52	COCCN(CCOC)S(=O)(=O)c1ccc(C(=O)Nc2nc(C)c(C(C)=O)s2)cc1	i
53	O=C(CN1CCN(S(=O)(=O)c2ccc(Br)cc2)CC1)Nc1ccc(F)cc1F	3.4
54	COc1ccc(/C=C/C(=O)Oc2cccc(/C=N/NC(=O)COc3c(C)cccc3C)c2)cc1	0.2
55	Cc1cccc(OCCn2c(=O)n(C)c3ccccc32)c1	1.9
56	O=C(COC(=O)c1cccnc1SCC(=O)NCc1ccccc1)NCc1ccccc1	0.2
57	COc1ccc(-c2nc(C)c(C(C)=O)n2O)cc1OC	i
58	CC(=O)NCC(=O)OCN1C(=O)c2ccccc2C1=O	i
59	Cc1cccc(NC(=O)Cn2c(=O)n(Cc3ccco3)c(=N)c3c4c(sc32)COC(C)(C)C4)c1	i
60	Cc1cc(=O)oc2cc(NC(=O)c3cc4ccccc4o3)ccc12	i

# Screen by screen, as entered above:
# H5N1 CPE for nos. 50 to 59, in order: i, i, i, 3.4, 0.2, 1.9, 0.2, i, i, i

# New compounds follow:
nr	mol	H5N1 CPE
61	COC(=O)C1=C(N)Oc2cc(C)n(Cc3cccnc3)c(=O)c2C1c1cc(OC)ccc1OC (stereo unspecified)	i
62	Cc1nn(CC(=O)Nc2ccc3c(c2)nc(CN2CCCCC2)n3C)c(=O)c2ccccc12	3.1
63	CC1CCCN(S(=O)(=O)c2ccc(NC(=O)Cn3nnc(-c4ccccc4F)n3)cc2)C1 (stereo unspecified)	i
64	CC(=O)c1cccc(OCCN2C(=O)NC(C)(C)C2=O)c1	i
65	COc1ccccc1C1N(c2ccc(Cl)cc2)C(=O)C2CCCN21 (stereo unspecified)	1.9
66	COc1ccc(N2CCN(S(C)(=O)=O)CC2)cc1	i
67	C=C(C)CSc1nc2nc(C)cc(C)n2n1	0.2
68	CCn1c(CCn2ccnc2C)n[nH]c1=S	i
69	Cc1oc(-c2cccs2)nc1CS(=O)CC(=O)NC1CCCCCC1 (stereo unspecified)	1.0
70	CCc1ccc(NC(=O)CC2NCCNC2=O)cc1 (stereo unspecified)	0.3
71	CCOc1cc(OCC)cc(C(=O)NC(=S)Nc2cccc(C(F)(F)F)c2)c1	i
72	N#Cc1c(N2CCCCC2)nc(N2CCCCC2)c2c1CCN(Cc1ccccc1)C2	1.9
73	Cc1cc(C)n(-c2ccc(Cl)c(C(=O)O)n2)n1	i
74	Cc1ccc(S(=O)(=O)Nc2ccc(C(=O)Nc3cc(C)on3)cc2)cc1	0.0
75	CCN=C1SC(CC(=O)NC(N)=O)C(=O)N1CC (stereo unspecified)	i
76	Cn1nc(OCCOc2ccccc2)ccc1=O	i
77	CC(C)N(C(=O)N1CCC(c2nc(-c3ccncc3)no2)CC1)C(C)C	i
78	O=c1c2ccccc2nnn1CSc1nnc(-c2cccc(S(=O)(=O)N3CCCCC3)c2)o1	4.5
79	O=C(CSc1ncnc2c1oc1ccccc12)Nc1cccc(Cl)c1	0.2
80	CCCCNC(=O)C(C#N)c1nc2ccccc2nc1N1CCN(c2ccccc2F)CC1 (stereo unspecified)	1.3
81	N#Cc1ccc(CSc2nnc(-c3cccc(S(=O)(=O)N4CCCCC4)c3)o2)cc1	5.4
82	CC1CCC(NC(=O)c2cc3c(s2)CS(=O)(=O)C3)CC1 (stereo unspecified)	0.5
83	O=C(Nc1ccc2c(c1)CCC2)c1cnn2c1NC(c1ccco1)CC2C(F)(F)F (stereo unspecified)	0.7
84	CN(C)S(=O)(=O)c1ccc(N2CCCC2)c(C(=O)NCc2cccc(C(F)(F)F)c2)c1	0.5
85	Cc1cc(C)nc(Sc2ccc3nnc(C(F)(F)C(F)(F)C(F)(F)F)n3n2)n1	1.0
86	CCN(CC)c1nc(N)nc(N(c2ccccc2)c2ccccc2)n1	0.0
87	CCN1C(=O)/C(=C/c2cnn(C)c2C)SC1=S	0.4
88	Nc1ccc2nc(CN3CCOCC3)[nH]c2c1	i
89	CN1/C(=C/C=N/n2cnnc2)C(C)(C)c2ccccc21	0.6
90	COc1cc(-c2c(C#N)c(N)nc3c2c(C)nn3-c2ccc(C)c(C)c2)cc(OC)c1OC	i
91	CNc1nc(C)nc(-c2ccccc2O)n1	0.9
92	CCOC(=O)C1=C(Cn2cnc3ccccc32)NC(=O)NC1c1cc(C)ccc1C (stereo unspecified)	i
93	COc1ccc(CN(Cc2ccccn2)S(=O)(=O)c2ccc(-n3cnnn3)c(OC)c2)cc1	i
94	C=CC[n+]1c(-c2ccc(OC)cc2)csc1NNC(=O)Nc1ccccc1	i
95	CCc1[nH]c(=O)c(C#N)c2c1CCCC2	0.1
96	COc1cc(NC(=O)c2ccc(Cl)cc2)c(OC)cc1NC(=O)CN1CCOCC1	0.1
97	C=CCn1c(-c2ccc(OC)c(OC)c2)n[nH]c1=S	0.7
98	CCOC(=O)C(C)Sc1nc2ccccc2c(=O)n1CC (stereo unspecified)	2.3
99	CCc1c(C)nc(SCC(=O)CC(=O)OC(C)C)c(C#N)c1C	i
100	CS(=O)(=O)N(CC(=O)N1CCN(c2ccccc2)CC1)c1ccc(Cl)c(C(F)(F)F)c1	i

# 4 of the compounds above, field by field:
89	CN1/C(=C/C=N/n2cnnc2)C(C)(C)c2ccccc21
- H5N1 CPE: 0.6
90	COc1cc(-c2c(C#N)c(N)nc3c2c(C)nn3-c2ccc(C)c(C)c2)cc(OC)c1OC
- H5N1 CPE: i
91	CNc1nc(C)nc(-c2ccccc2O)n1
- H5N1 CPE: 0.9
92	CCOC(=O)C1=C(Cn2cnc3ccccc32)NC(=O)NC1c1cc(C)ccc1C (stereo unspecified)
- H5N1 CPE: i

# Remaining list, next part
nr	mol	H5N1 CPE
101	Cc1ccc(S(=O)(=O)N2CCC(C(=O)O)CC2)cc1C(=O)O	i
102	COC(=O)c1ccccc1NC(=O)c1cc2n(n1)C(C(F)F)CC(C(F)F)N2 (stereo unspecified)	0.1
103	CCOC(=O)CSc1nc(C2CC2)nc2ccccc12	0.2
104	Cc1[nH]c2ccccc2c1C(=O)CN1CCN(C2CCCCC2)CC1	i
105	O=C(Nc1ccc(N2CCOCC2)c(Cl)c1)c1cccnc1	0.5
106	Cc1onc(-c2ccccc2)c1C(=O)N1CCc2ccccc21	i
107	O=C(c1ccccc1)c1ccccc1C(=O)N1CCOCC1	i
108	CCc1ccc(-c2nnn(Cc3nn[nH]n3)n2)cc1	i
109	Cc1ccc(C)c(C(=O)O/N=C(\N)c2ccc(Br)cc2)c1	i
110	N#Cc1c(N)c(C(=O)c2ccc(Cl)cc2)n2c1CCC2	2.1
111	O=C(CCCOc1ccc(Cl)cc1Cl)N1CCCc2ccccc21	1.3
112	COc1ccc(NC(=O)c2ccc(C(=O)c3ccccc3)o2)cc1	i
113	Cc1cc2nc3c(c(=O)n2[nH]1)CCCC3	2.2
114	CCn1c(=N)n(CC(O)COc2cccc(C)c2)c2ccccc21 (stereo unspecified)	i
115	COc1ccc(OC)c(CNC(=O)Cc2c(C(=O)O)[nH]c3ccccc23)c1	i
116	CCOc1cccc2c1OC1(C)CC2NC(=O)N1c1cccc(Cl)c1 (stereo unspecified)	2.9
117	O=C(N1CCOCC1)C12CC3CC(C1)CC(C(=O)N1CCOCC1)(C3)C2	0.3
118	COc1ccc(-n2ncc3c(N4CCCc5ccccc54)ncnc32)cc1	0.7
119	CN(C)Cc1cc(C(C)(C)C)c(O)c(C(C)(C)C)c1	i
120	COc1ccc(-c2cc(N)n(S(=O)(=O)c3ccc(F)cc3)n2)cc1OC	i
121	Cc1cc2cc(C)c3nnc(SCC(=O)N4CCc5ccccc54)n3c2cc1C	1.2
122	COc1ccc(Cn2c(=O)[nH]c3cc(C(=O)NCCCN4CCCC4)ccc3c2=O)cc1	i
123	COc1ccc(/C=N/NC(=O)CSc2nnc(CCCc3ccc(OC)c(C)c3)o2)cc1	4.3
124	COC(=O)CCc1c(C)[nH]c(C(=O)OCc2ccccc2)c1C	0.5
125	COc1ccc(O)c(C(=O)c2cc(C#N)c(=O)n(-c3c(C)n(C)n(-c4ccccc4)c3=O)c2)c1	i
126	CC(C)(C)C(=O)NCCCc1nc2ccccc2n1CCCOc1ccc(Cl)cc1	i
127	COc1ccc(NC(=O)C2CCCN(S(=O)(=O)c3ccc4c(c3)oc(=O)n4C)C2)cc1OC (stereo unspecified)	2.1
128	CCN1CCN(c2nc(-c3ccncc3)nc3ccccc23)CC1	0.7
129	C=CCn1cc(C(=O)NCCOC)c(=O)c2cc(S(=O)(=O)N(CC)CC)ccc21	1.7
130	OC(COc1c(F)cc(Br)cc1F)CN1CCN(c2ccc(F)cc2)CC1 (stereo unspecified)	i
131	CC(=O)c1ccc(NC(=O)CCn2c(=O)oc3ccccc32)cc1	i
132	CCCc1cc(=O)[nH]c(SCC(=O)NCCCC(=O)OCC)n1	i
133	O=C(CN1CCN(C2CCCCC2)CC1)Nc1ccccc1-c1ccccc1	i

# This is a subset, so the mix of outcomes need not match the whole.
